Screening results deposited in PubChem by National Center for Advancing Translational Sciences (NCATS).
miR-21 reporter: miR-21 reporter, rising signal. HeLa miR-21 FLuc reporter, luciferase, 48 h. Potency, µM (top dose mostly 38.3 µM), for the others: at the highest dose reporter change, positive = more light. 340,000 tested, under 10 active; active = well fitted rising curve with a large enough effect; inconclusive = small, poorly fitted or top-dose-only effect; inactive = no such curve, though single readings can be large or run the other way;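 note: % of control where 0% means no effect; miR-21 action dims this reporter so a rising signal means less miR-21 action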
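Compounds were titrated across several concentrations (up to approximately 40 uM) and incubated 48 hours with HeLa miR-21-FLuc reporter cells (miR-21 target sequence downstream of FLuc, endogenous miR-21). Readout was firefly luciferase luminescence after lytic detection reagent.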
* hit, by the source's call; u = inconclusive; [ ] = another dose, or the depositor's remark. Not all compounds are listed, so the mix of outcomes need not match the whole.

SMILES	miR-21 reporter
CCOc1ccc(CC(=O)NCC(c2cccs2)S(=O)(=O)c2ccc(F)c(C)c2)cc1 (stereo not drawn)	7%
CCc1ccc(CNC(=O)C2CCN(c3nc4ccccc4nc3C(F)(F)F)CC2)cc1	4%
CCN(C(=O)C1CCC(CNS(=O)(=O)c2cccc3nsnc23)CC1)c1ccc(C)c(C)c1 (stereo not drawn)	u
COc1ccc(-n2c(SCc3nc(-c4ccc(C)cc4)no3)nnc2-c2ccncc2)cc1	-3%
O=C(NCCc1ccc(Cl)cc1)c1ccc(Cn2c(=O)c3cccn3c3cccnc32)cc1	-7%
CCC1CCC(C(=O)NC(C(=O)NCCN(CC(C)C)CC(C)C)C(C)C)CC1 (stereo not drawn)	1%
Cc1ccc(-n2c(=O)c3c(cnn3C)n(Cc3ccc(Cl)cc3)c2=O)cc1	-6%
CCN(c1ccccc1)C(CNS(=O)(=O)c1ccccc1)c1ccccc1 (stereo not drawn)	u
CCOC(=O)C1(C)C=C(Nc2cccc(C(=O)O)c2)C(=O)N1c1cccc(C(=O)O)c1 (stereo not drawn)	0%
CCOC(=O)c1c(-c2ccccc2)csc1NC(=O)c1cc(-c2ccc(Cl)cc2)on1	4%
Cc1cc2nn(-c3ccccc3)nc2cc1NC(=O)c1cccc2c(Cl)cccc12	-15%
COc1ccc(Nc2nc(Nc3ccc(OC)cc3OC)nc(N3CCOCC3)n2)c(OC)c1	-19%
COc1ccc(C2C(=O)N(C3CCCCC3)CC(=O)N2Cc2ccccc2Cl)cc1OC (stereo not drawn)	1%
COc1ccc(-c2cn3c(n2)sc2cc(C(=O)NC4CCCc5ccccc54)ccc23)cc1 (stereo not drawn)	-3%
CCCN1C(=O)c2[nH]nc(-c3ccccc3O)c2C1c1ccc(OCc2ccccc2)c(OCC)c1 (stereo not drawn)	u
COc1cc(C(CC(=O)NCc2ccc(F)cc2)N2Cc3ccccc3C2=O)cc(OC)c1OC (stereo not drawn)	7%
Cc1ccc(NC(=O)CN2C(=O)CCSc3ccccc32)c(C)c1	-6%
COc1ccc(CNC(=O)Cn2c(=O)nc(-c3ccccc3)c3cc(Cl)ccc32)cc1OC	-8%
CCOC(=O)c1cnc(N2CCN(c3ccc(OC)cc3)CC2)c2ccccc12	3%
CNC(=O)C1CCC(Cn2c(=O)c3sccc3n(CC(=O)NCc3cccc(OC)c3)c2=O)CC1 (stereo not drawn)	-1%
CCOC(=O)N1CCc2c(sc3c2c(=O)n(-c2ccc(F)cc2)c(=O)n3CC(=O)c2ccc(Cl)cc2)C1	3%
CC(C)c1ccc(NC(=O)CN2C(=O)CSc3ccc(S(=O)(=O)N4CCCC4)cc32)cc1	-2%
CC(C)c1cnc2c(c1SCC(=O)N1CCCCC1)c(=O)n(C)c(=O)n2C	-5%
CCOc1ccc(-n2c(=O)c3c(C)c(C)sc3n(CC(=O)N3CCC(C)CC3)c2=O)cc1	0%
Cc1ccc(OCC(=O)Nc2cccc(-c3nc4ccccc4s3)c2)cc1	-48%
Cc1ccccc1NC(=O)c1ccc(F)c(S(=O)(=O)N2CCN(c3ccccc3F)CC2)c1	8%
CCc1ccccc1NC(=O)Cn1c(=O)nc(-c2ccccc2)c2ccccc21	0%
COc1ccc(C(=O)c2cn(Cc3ccc(C)cc3)c3cc4c(cc3c2=O)OCO4)cc1	-6%
CCOc1ccc(NC(=O)N2CCC(CN3CCCCCC3)CC2)cc1	-10%
Cc1nc(-c2ccc(Cl)cc2)sc1CCNC(=O)c1cccs1	20%
O=c1c2ccccc2n2c(-c3ccccc3F)nnc2n1CCc1ccccc1	-2%
N#Cc1ccc2c(c1)C[C@]1(c3ccsc3)Oc3c(c(=O)oc4ccccc34)C2O1	-10%[7.66 µM]
Cc1cc2c(cc1S(=O)(=O)NCc1ccccc1Cl)OCC(=O)N2	-2%
CCOc1ccc(S(=O)(=O)Nc2cc(Cl)ccc2OC)c2cccnc12	23%
COc1ccc(Cl)cc1NC(=O)C1CCN(S(=O)(=O)c2ccc3c(c2)CCCN3C(=O)C2CCC2)CC1	-5%
O=C(COCc1cc(-c2ccco2)on1)Nc1ccc(OC(F)(F)F)cc1	0%
CCc1ccccc1N(C)C(=O)Cn1cnc2sc(C)c(S(=O)(=O)N3CCN(c4ncccn4)CC3)c2c1=O	-4%
COc1ccc(Cl)cc1NC(=O)CSc1nnc2[nH]c(=O)cc(C)n12	6%
CCOc1ccc(CCNC(=O)c2cc(=O)[nH]c3ccc(S(=O)(=O)N4CCCCC4C)cc23)cc1OCC (stereo not drawn)	-1%
Cc1ccc(S(=O)(=O)NCC(c2ccc(N(C)C)cc2)N2CCc3ccccc32)cc1C (stereo not drawn)	-5%
COC(=O)c1c(SC)nc2ccccc2c1OCc1ccc(C)cc1C	1%
CC(C)c1nn2c(=O)cc(COC(=O)CNC(=O)c3ccccc3)nc2s1	-4%
CC(C)c1ccccc1Oc1c(C(F)(F)F)oc2c(CN3CCN(C)CC3)c(O)ccc2c1=O	2%
Cc1noc2nc(C(=O)O)nc(N3CCCCC3)c12	0%
COc1cc2cc(CNc3ccccc3)c(=O)n(CC(=O)Nc3ccccc3)c2cc1OC	-5%
O=c1[nH]c2ccc(S(=O)(=O)Nc3cc(Cl)ccc3O)cc2o1	-3%
COc1ccccc1CCN1COc2c(cc3c(C)c(C)c(=O)oc3c2C)C1	0%
O=C(CCc1cn(Cc2ccc(F)cc2)c2ccccc12)NC1CCCCC1	-1%
COCCn1c(C)cc(O)c(C(c2ccc(F)cc2)N2CCN(c3ccccc3)CC2)c1=O (stereo not drawn)	-4%
CCCN(CCC)CCCNC(=O)Cn1ncc2c3ccccc3n(Cc3ccc(F)cc3)c2c1=O	-4%
O=C(NCC(c1ccc2c(c1)OCO2)N1CCOCC1)C(=O)Nc1ccc(Cl)cc1 (stereo not drawn)	-9%
CCCNC(=O)CSc1cn(CC(=O)N2CCCCCC2)c2ccccc12	4%
O=C1CSC2(C(=O)N(Cc3ccccc3)c3ccccc32)N1c1ccc(Cl)cc1 (stereo not drawn)	-12%
COc1ccc(CCn2c(=O)c3cccnc3n(CC(=O)Nc3c(C)cccc3C)c2=O)cc1OC	1%
CCOc1ccc(OCC)c(NC(=O)CCc2c(C)nc3c(c2C)c(=O)n(C)c(=O)n3C)c1	0%
COC(=O)c1ccc(NC(=O)C(=O)NCCc2sc3nc(-c4ccc(OC)cc4)nn3c2C)cc1	-11%
COc1ccc(-c2cc(-c3ccc4c(c3)NC(=O)CO4)nc3c2COc2ccc(F)cc2-3)cc1	1%
CCN(Cc1ccccc1)Cc1c(O)ccc2c(=O)c(-c3ccc(Cl)cc3)coc12	-20%
Cc1ccc(NC(=O)Cn2c(=O)n(Cc3ccco3)c(=O)c3ccccc32)cc1	4%
COc1ccc(-n2c(=O)c3sc4ccccc4c3n(Cc3ccccc3)c2=O)cc1	-1%

Not a retest: entries from further up.
SMILES	miR-21 reporter
COc1ccccc1CCN1COc2c(cc3c(C)c(C)c(=O)oc3c2C)C1	0%
O=C(CCc1cn(Cc2ccc(F)cc2)c2ccccc12)NC1CCCCC1	-1%
COCCn1c(C)cc(O)c(C(c2ccc(F)cc2)N2CCN(c3ccccc3)CC2)c1=O (stereo not drawn)	-4%
CCCN(CCC)CCCNC(=O)Cn1ncc2c3ccccc3n(Cc3ccc(F)cc3)c2c1=O	-4%
O=C(NCC(c1ccc2c(c1)OCO2)N1CCOCC1)C(=O)Nc1ccc(Cl)cc1 (stereo not drawn)	-9%
CCCNC(=O)CSc1cn(CC(=O)N2CCCCCC2)c2ccccc12	4%
O=C1CSC2(C(=O)N(Cc3ccccc3)c3ccccc32)N1c1ccc(Cl)cc1 (stereo not drawn)	-12%
COc1ccc(CCn2c(=O)c3cccnc3n(CC(=O)Nc3c(C)cccc3C)c2=O)cc1OC	1%
CCOc1ccc(OCC)c(NC(=O)CCc2c(C)nc3c(c2C)c(=O)n(C)c(=O)n3C)c1	0%
COC(=O)c1ccc(NC(=O)C(=O)NCCc2sc3nc(-c4ccc(OC)cc4)nn3c2C)cc1	-11%
COc1ccc(-c2cc(-c3ccc4c(c3)NC(=O)CO4)nc3c2COc2ccc(F)cc2-3)cc1	1%
CCN(Cc1ccccc1)Cc1c(O)ccc2c(=O)c(-c3ccc(Cl)cc3)coc12	-20%
Cc1ccc(NC(=O)Cn2c(=O)n(Cc3ccco3)c(=O)c3ccccc32)cc1	4%
COc1ccc(-n2c(=O)c3sc4ccccc4c3n(Cc3ccccc3)c2=O)cc1	-1%

More records
SMILES	miR-21 reporter
O=C(Cn1cc(S(=O)(=O)N2CCCC2)c(S(=O)(=O)N2CCCC2)c1)Nc1ccc(F)cc1	-6%
CCC(=O)Nc1c(C(=O)N2CCN(c3ccc(F)cc3)CC2)oc2ccccc12	-15%
COC(=O)c1ccc(NC(=O)CSc2cn(CC(=O)N3CCCCC3)c3ccccc23)cc1	u
CCOC(=O)c1cc(-c2ccc(F)cc2)n(CCC(=O)Nc2nc3ccc(OC)cc3s2)c1C	u
COc1ccc(OC)c(-c2nc(Nc3ccccc3C)sc2CC(=O)O)c1	-6%
CN(C)S(=O)(=O)c1ccc2c(c1)N(CC(=O)NCc1ccccc1)C(=O)C1CCCCN21 (stereo not drawn)	-1%
COc1ccc(CCNC(=O)C(=O)NCC(c2cccs2)S(=O)(=O)c2ccc(C)cc2)cc1 (stereo not drawn)	13%
Cc1ccc(NC(=O)c2c(NC(=O)Cc3ccccc3)sc3c2CCCC3)cc1	-6%
COc1ccc(C(=O)NC2(C(F)(F)F)C(=O)NC(C)=C2C#N)cc1OC (stereo not drawn)	-2%
O=C(OCc1cc(=O)n2nc(-c3cccs3)sc2n1)c1ccc(F)cc1	-3%
CC(C)(C)c1ccc(C(=O)Nc2sc3c(c2C#N)CCC(C(C)(C)C)C3)cc1 (stereo not drawn)	-9%
O=C(NCCCc1nc2ccccc2n1Cc1c(F)cccc1Cl)C1CCCCC1	0%
CCn1c(SCc2ccc(F)cc2Cl)nc(=O)c2c(C(=O)OC)cc(C3CC3)nc21	27%
O=S(=O)(NCc1ccc(Cl)cc1)c1ccc2[nH]c3c(c2c1)CCCC3	u
CCOc1ccccc1NC(=O)CCc1c(C)nc2c(c(C)nn2-c2ccccc2)c1C	-3%
CC(=O)c1cccc(NC(=O)CCc2c(C)nc3c(c(C)nn3-c3ccccc3)c2C)c1	27%
NC(=O)c1c(NC(=O)CS(=O)(=O)c2ccc(Cl)cc2)sc2c1CCCCC2	23%
COC(=O)c1ccc(Cn2cnc3nc4c(cc3c2=O)CCCC4)cc1	-1%
CCc1nn(CC(=O)NCCCc2ccccc2)c(=O)c2cc3ccccc3n12	-1%
O=C(COc1ccccc1)Nc1ccc2nc(SCC(=O)N3CCCC3)sc2c1	10%
Cc1ccc(OCCSc2nc3ccc(NC(=O)c4ccc5c(c4)OCO5)cc3s2)cc1	0%
Cc1ccc(NC(c2nnc(-c3ccccc3)o2)c2ccccc2F)c([N+](=O)[O-])c1 (stereo not drawn)	1%
Cc1ccc(NC(=O)CSc2nccn2-c2ccccc2)cc1	-8%
CCOC(=O)c1cccc(NC(=O)CCc2c(C)nn(-c3ccc(N4CCCCC4)nn3)c2C)c1	0%
CN1CCN(C(CNC(=O)C(=O)Nc2ccc(F)cc2F)c2ccc3c(c2)OCO3)CC1 (stereo not drawn)	-11%
Cc1ccc(NC(=O)CN(C)S(=O)(=O)c2ccc3c(c2)CCC(=O)N3)c(C)c1	-1%
Cc1nnc(SCc2ccccc2Cl)c2cc3sccc3n12	-1%
COc1cccc(NC(=O)c2cc3c(=O)n(C)c4ccccc4c3n2C)c1	1%
CCN1CCN(c2cc(C)c3cc(NC(=O)/C=C/c4ccc(C)cc4)ccc3n2)CC1	-19%
COc1cc(OC)cc(C(=O)Nc2ccc3oc(-c4ccc(Cl)cc4)nc3c2)c1	-7%
CCc1ccc(S(=O)(=O)Nc2cccc(-c3ccc(N4CCOCC4)nn3)c2)cc1	-13%
CCOc1ccc(-c2cc(C(=O)Nc3ccc(NC(C)=O)cc3)no2)cc1	-16%
Cc1ccc(-c2nc3nc(C)cc(N4CCN(c5cccc(C)c5)C(C)C4)n3n2)cc1 (stereo not drawn)	2%
Fc1ccc(N2CCN(Cc3cccn3-c3nnc(N4CCN(C5CCCCC5)CC4)s3)CC2)cc1	-6%
Cc1ccc(NS(=O)(=O)c2ccc3c4c(cccc24)C(=O)N3)c(C)c1	u
CCc1cccc(-n2c(C)nc3c(cnn3-c3ccc(C)c(C)c3)c2=O)c1	7%
CSCCC(NS(=O)(=O)c1ccc2c(c1)oc(=O)n2C)C(=O)Nc1ccc(F)c(Cl)c1 (stereo not drawn)	29%
Cc1ccc(CNS(=O)(=O)c2c(C(=O)N3CCC(C)CC3)c(C)n(C)c2C)cc1	-1%
CCOc1ccccc1Nc1cc(-c2ccccc2)nc(C)n1	3%
CS(=O)(=O)CCC(C(=O)Nc1cccc(C(F)(F)F)c1)N1Cc2ccccc2C1=O (stereo not drawn)	-7%
COc1ccc(CCC(=O)NCc2nc3cccnc3n2Cc2ccc(C)cc2)cc1	-2%
N#CC1=C(N)N(c2ccc(Cl)cc2)C2=C(C(=O)CCC2)C1c1cc(CN2CCOCC2)cs1 (stereo not drawn)	24%
Fc1ccc(N2CCN(c3nc4ccccc4c4nc(-c5ccccc5)nn34)CC2)cc1	0%
Cc1ccccc1NC(=O)Cn1c(=O)oc2cc(Br)ccc21	-6%
Cc1ccc(CNC(=O)C2CCN(C(=O)N3CC(C)Oc4ccc(Cl)cc43)CC2)cc1 (stereo not drawn)	-22%
Cc1ccc(C)c(N2CCN(c3ccc4cc(S(=O)(=O)N5CCC(C)CC5)ccc4n3)CC2)c1	1%
O=C(Nc1cc2c(cc1C(=O)c1ccccc1Br)OCCO2)c1ccccc1	-1%
Cc1ccc2oc(C(=O)Nc3c(C(=O)Nc4ccccc4)oc4ccccc34)cc(=O)c2c1	-3%
CCOc1cccc2cc(S(=O)(=O)c3ccccc3F)c(=O)oc12	6%
COc1ccc(-n2nc3cc(C)c(NC(=O)c4ccc(C)cc4C)cc3n2)cc1Cl	-9%
